# VDR inhibitor: vitamin D3 receptor (human) inhibition; P11473; VDR-SRC2-3 peptide fluorescence polarization, 2 h; Potency, µM, without a hit: max response, negative = inhibition, hits mostly inhibitors; hit rate 0.93% among 400,000; active means well fitted inhibition curve with a large enough effect; inconclusive means small, poorly fitted or top-dose-only effect, or another doubt; inactive means no such curve, though single readings can be large or run the other way; further: series mostly up to about 120 µM
# Target sequence (P11473 whole entry, looked up): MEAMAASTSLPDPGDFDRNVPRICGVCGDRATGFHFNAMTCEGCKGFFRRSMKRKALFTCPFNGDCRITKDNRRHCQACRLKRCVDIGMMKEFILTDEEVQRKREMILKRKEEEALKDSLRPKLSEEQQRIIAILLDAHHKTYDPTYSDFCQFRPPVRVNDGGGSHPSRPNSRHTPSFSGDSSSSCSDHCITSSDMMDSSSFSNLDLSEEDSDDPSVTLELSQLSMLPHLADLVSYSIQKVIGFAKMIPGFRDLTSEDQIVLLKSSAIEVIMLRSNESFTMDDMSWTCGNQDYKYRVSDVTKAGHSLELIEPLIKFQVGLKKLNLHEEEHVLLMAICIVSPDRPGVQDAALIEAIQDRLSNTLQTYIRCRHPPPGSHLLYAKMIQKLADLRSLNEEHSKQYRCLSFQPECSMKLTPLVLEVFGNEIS
#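 Measured by FP: displacement of SRC2-3 coactivator peptide from VDR by library compounds, following a two-hour ambient incubation.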
# Active calls of the source: *; ? = inconclusive; & = joins results of further samples; [ ] = another dose, or the depositor's remark. On the % scale 0 is the no-effect control and ±100 the full control effect; potency means the concentration at half of the fitted maximal effect.
SMILES,VDR inhibitor
O=C(Oc1ccccc1Cl)C1CCN(C(=O)c2ccc(F)cc2)CC1,6%
COc1ccccc1CNC(=O)CNC(=O)Cn1cnc2ccccc2c1=O,11%
COC(=O)c1ccc(OCC2c3cc(OC)c(OC)cc3CCN2C(=O)COc2ccc(Cl)cc2)cc1 (stereo not given),5%
CCc1cccc(C)c1NC(=S)NCc1ccccc1,1%
OCCn1c(-c2ccc(F)cc2)csc1=Nc1ccccc1,-29%
COC(=O)c1ccc(C(=O)OC)c(NC(=O)COc2ccccc2OC)c1,1%
CCn1c(NCCc2ccc(OC)c(OC)c2)nc2c1c(=O)n(C)c(=O)n2C,-16%
COc1ccc(C(=O)N/N=C/C2CC=CCC2)cc1OC (stereo not given),-2%
CCc1ccc(-c2cn3c(n2)sc2cc(C(=O)NCCC4=CCCCC4)ccc23)cc1,9%
Cc1ccc(OCC(=O)Nc2ccc3c(c2)sc(=O)n3C)cc1,-7%
CC(C)C(=O)NC(=S)Nc1ccc(CN2CCOCC2)cc1,-3%
Cn1c(-c2ccc(F)cc2)cnc1SCC(=O)NCc1ccco1,-12%
O=C(CCNS(=O)(=O)c1ccccc1C(F)(F)F)NCC(c1ccco1)N1CCCCC1 (stereo not given),-12%
Cc1ccsc1/C=C(\C#N)C(=O)NCc1ccco1,-8%
O=C(CSc1nnc(NC(=O)C2CCCCC2)s1)NCc1ccco1,2%
O=C(CNC(=S)N(Cc1ccccc1)Cc1cccnc1)NC1CCCC1,15%
CN(CCc1ccccc1)Cc1nc(-c2cnccn2)no1,-2%
COc1ccccc1CNC(=O)COC(=O)c1ccc([N+](=O)[O-])o1,16%
CCCCN(C(=O)Oc1ccccc1)C1CCS(=O)(=O)C1 (stereo not given),-3%
Cn1c(=O)n(Cc2ccccc2)c(=O)c2c1nc1n2CCCN1Cc1ccccc1,6%
COc1ccc(-n2nc3c(N4CCC(C(=O)NCC(C)c5ccccc5)CC4)nnc(C)c3c2C)cc1 (stereo not given),?
O=C(Nc1ccc(Cl)cc1)c1ccsn1,2%
O=C(O)c1ccc(/C=N/NC(=S)NCCN2CCOCC2)cc1,0%
c1csc(Cc2nn3c(-c4ccncc4)nnc3s2)c1,6%
C[C@H](NC(=O)c1nc[nH]c1C(=O)N1CCN(c2ccccc2)CC1)C(=O)OC(C)(C)C,24%
COc1ccc(-c2cn[nH]c2-c2ccc(OCC(=O)NN)cc2O)cc1,-7%
CC(C)Cc1nn2c(=O)cc(COC(=O)c3cccc(NS(C)(=O)=O)c3)nc2s1,13%
O=[N+]([O-])c1cc(-c2nnc(C34CC5CC(CC(C5)C3)C4)o2)cc([N+](=O)[O-])c1,-9%
Cc1cc(C)cc(N2CC(c3nc(-c4cccc(Cl)c4)no3)CC2=O)c1 (stereo not given),-8%
O=C(O)c1cn(CCOc2ccccc2Cl)c2ccccc12,24%
O=C(Nc1ccc(N2CCN(C(=O)c3ccccc3)CC2)c(Cl)c1)c1ccco1,14%
O=C(COC(=O)c1cccnc1Cl)NC1CCCc2ccccc21 (stereo not given),?
CCc1cccc(NC(=O)C2CCC(CNS(=O)(=O)c3ccc(Br)s3)CC2)c1 (stereo not given),-8%
O=C(CCS(=O)(=O)c1cc2c(cc1Cl)NC(=O)CO2)NCCc1ccccc1,-3%&-1%
O=C(CSc1nnc(Cc2ccccc2)o1)Nc1cccc(F)c1,1%
Oc1ccc(N=Nc2ccc(Br)cc2)c(O)c1,-7%
CCC/C(O)=C1\C(=O)CC(C)(C)CC1=NCCO,-8%
CC(C)(C)c1ccc(NC(=O)Nc2ccc(F)cc2)cc1,0%
O=C(CSc1nc2ccccc2c(=O)n1-c1ccccc1F)N1CCOCC1,8%
CCN1CCN(c2cc(C)c3cc(NC(=O)/C=C/c4cccc(Cl)c4)ccc3n2)CC1,26%
Cc1occc1C(=O)N1CCCC(Nc2ccc(C(C)C)cc2)C1 (stereo not given),13%
CN(C)/C(=N\S(=O)(=O)c1ccc(F)cc1)c1ccccc1,-2%
Cc1ccc2nc(NC(=O)COC(=O)CSc3nc(C)cc(C)n3)sc2c1,0%
CCOc1cc(/C=N/NC(=O)c2cccs2)cc([N+](=O)[O-])c1O,12%
Cc1ccc(-c2nc(CS(=O)(=O)CC(=O)N3CCN(C)CC3)c(C)o2)cc1,-4%
O=c1c2cnn(-c3ccc(Cl)cc3)c2ncn1Cc1ccc(Cl)cc1Cl,-1%
O=C(OCc1c(-c2ccccc2)ncc2ccccc12)c1ccc(C(F)(F)F)cc1,-9%
Cn1c(C(=O)NCCN2CCOCC2)cc2c(=O)n3ccccc3nc21,-15%
COc1ccc(C=O)cc1CN1CCCN(Cc2ccccc2F)S1(=O)=O,-4%
CCS(=O)(=O)N1CCc2cc(C(=O)Nc3ccc(Br)cc3F)ccc21,16%

# Quoted at random: six entries already listed.
SMILES,VDR inhibitor
CN(C)/C(=N\S(=O)(=O)c1ccc(F)cc1)c1ccccc1,-2%
O=c1c2cnn(-c3ccc(Cl)cc3)c2ncn1Cc1ccc(Cl)cc1Cl,-1%
CCOc1cc(/C=N/NC(=O)c2cccs2)cc([N+](=O)[O-])c1O,12%
Cc1ccc(-c2nc(CS(=O)(=O)CC(=O)N3CCN(C)CC3)c(C)o2)cc1,-4%
CCS(=O)(=O)N1CCc2cc(C(=O)Nc3ccc(Br)cc3F)ccc21,16%
O=C(OCc1c(-c2ccccc2)ncc2ccccc12)c1ccc(C(F)(F)F)cc1,-9%

# (more compounds)
SMILES,VDR inhibitor
Fc1ccccc1N1CCN(c2ncnc3c2nc2n3CCCCC2)CC1,2%
Cc1nnc(SCC(=O)N2CCc3ccccc3C2)n1-c1ccccc1,-10%
O=[N+]([O-])c1cnn(-c2nc(-c3ccccc3)cc(C(F)(F)F)n2)c1,3%
C=CCN(CC=C)C(=O)c1c(OC)cccc1OC,5%
Cc1ccc(C(=O)NS(=O)(=O)c2ccccc2)cc1,-15%
O=C(CSc1c2c(nc3cc(Cl)ccc13)CCCC2)N1CCN(c2ccccc2)CC1,-11%
O=S1(=O)N=C(N(CCO)/N=C/c2ccncc2)c2ccccc21,4%
Cc1csc(NC(=O)CSCc2c(C)noc2C)n1,-11%
Cc1ccc2[nH]c(=O)c(CN(Cc3ccco3)C(=O)c3ccncc3)cc2c1,-6%
O=C(C1CC1)N1CCc2cc(Br)cc(S(=O)(=O)NCc3ccc4c(c3)OCO4)c21,4%
Cc1cc(C)c2nc(Cl)c(C3NC(=O)c4ccccc4N3)cc2c1 (stereo not given),-12%
Cc1ccnc(NS(=O)(=O)c2ccc(NC(=O)Cc3ccc(F)cc3)cc2)n1,-13%
CC(C)OCCCn1c(NN)nc2ccccc2c1=O,-6%
CCCCCCN1CC(O)=C(c2nc3ccccc3[nH]2)C1=N,-4%
COc1cc(OC)c(NC(=S)NCc2ccc(F)cc2)cc1Cl,-20%
O=C(NC(=S)N1CCN(c2ccc([N+](=O)[O-])cc2)CC1)c1ccccc1F,-2%
CC(C)(C)C(=O)OCCn1c(=O)c2cc3c(=O)n(CCOC(=O)C(C)(C)C)c(=O)c3cc2c1=O,15%
OCC1(Cc2ccccc2)CCN(Cc2ccc(-c3ccco3)cc2)CC1,-9%
CC(c1ccco1)N(C(=O)c1ccccc1NS(=O)(=O)c1cc([N+](=O)[O-])ccc1Cl)c1ccccn1 (stereo not given),-14%
O=C(N/N=C/C=C/c1ccccc1)C(O)c1ccccc1 (stereo not given),2%
COCCN(CCOC)S(=O)(=O)c1ccc(C(=O)Nc2nnc(C)o2)cc1,-7%
O=C(N/N=C/C=C/c1ccc2c(c1)OCO2)c1ccc([N+](=O)[O-])cc1,18%
CCCc1nnc(NC(=O)Cn2c(=O)sc3ccccc32)s1,1%
CCOCCCNC(=S)N1C2CCC1CC(NC(=O)NC13CC4CC(CC(C4)C1)C3)C2 (stereo not given),1%
COc1ccc(C(C(=O)NC2CCCCC2)N(Cc2cccnc2)C(=O)c2snc(C(N)=O)c2N)cc1 (stereo not given),-15%
COc1cccc(NC(=O)C(C)(C)C)c1,-23%
CC1CC(CC(C)C(=O)Nc2nncs2)C(=O)O1 (stereo not given),4%
COc1ccc(C)cc1S(=O)(=O)N1CCCC(N2CCOCC2)C1 (stereo not given),10%
COCCNC(=O)c1ccccc1NC(=O)c1ccccc1SC,3%
Cc1ccc(Oc2nc3ccccc3n3cccc23)cc1,9%
Cc1cccc(C(=O)NCC(=O)OCC(=O)N(C)CC(=O)Nc2ccccc2Cl)c1,6%
O=c1c2cccnc2n(Cc2cccc(F)c2)c(=O)n1Cc1ccccc1Cl,-7%
CCCS(=O)(=O)N1CCN(c2ccccc2F)CC1,-4%
CC(Oc1ccc2c(-c3ccccc3)cc(=O)oc2c1)C(=O)N[C@H](Cc1c[nH]c2ccccc12)C(=O)O (stereo not given in full),-6%
COc1cc(C2c3c(oc4ccc(C)cc4c3=O)C(=O)N2Cc2ccccc2)ccc1O (stereo not given),-2%
O=C(N/N=C/c1ccc2cccc(OCc3ccccc3)c2n1)c1ccc(Cl)cc1,0%
CC1CC(C)CN(c2oc(-c3ccc(OCc4ccc(Cl)cc4)cc3)nc2C#N)C1 (stereo not given),-6%
CCn1c(NN)nc2sc3c(c2c1=O)CCC3,-17%
CCOCCn1c(CN2CCOCC2)nc2c1c(=O)[nH]c(=O)n2C,-13%
Cc1ccc(-c2csc(=Nc3cccnc3)n2CCCn2ccnc2)cc1C,0%
CCOC(=O)C1CCN(C(=O)COC(=O)CSc2ccccc2C)CC1,4%
COC(=O)C(NS(=O)(=O)c1ccc(C)cc1)c1ccccc1 (stereo not given),5%
Cc1ccc(NC(=O)Cc2c(C(=O)O)c(C)cn2C)cc1Cl,7%
CCOC(=O)C(=CN=C(N)Nc1nc2ccccc2o1)C(=O)OCC,0%
COc1ccc(/C=N/NC(=O)Cc2cc(OC)c(OC)cc2[N+](=O)[O-])cc1,4%
COCCNC(=O)CCCC(=O)NCCOC,-2%
CCN(CC)S(=O)(=O)c1ccc2oc(C(=O)NCc3ccccc3OC)c(C)c2c1,-6%
COc1cc([N+](=O)[O-])cc(/C=N/NC(=O)Cn2cncn2)c1O,-12%
COc1ccc(N(C)C(=O)c2cc3c(s2)-c2ccccc2OC3)c(OC)c1,?
COC(=O)C1=C(C)N(C)C(=S)NC1c1ccccc1 (stereo not given),-6%

# Other compounds
SMILES,VDR inhibitor
Cc1ccc(-c2nc3ccccn3c2Nc2c(C)cccc2C)o1,79µM*
Cc1cccc(N2CCN(C(=O)C(C)C)CC2)c1C,-6%
CC1CCN(CC2CCN(C(=O)Nc3ccc(Br)cc3F)CC2)CC1,10%
CC(C)CSc1ccccc1NC(=O)c1sc2nc(-c3ccncc3)ccc2c1N,-9%
O=C(COC(=O)[C@H](Cc1ccccc1)NC(=O)c1cccs1)Nc1c(Cl)cccc1Cl,-7%
Cc1ccc(CNC(=O)c2cc(S(=O)(=O)N3CCCCC3)ccc2N2CCOCC2)cc1,-9%
COc1ccc(Cl)c(Cn2c(NCC(C)O)nc3c2c(=O)n(C)c(=O)n3C)c1 (stereo not given),15%
CNC(=O)C1CCN(S(=O)(=O)c2c(C)noc2/C=C/c2ccc(C)cc2)CC1,9%
Cc1ccccc1OCC(=O)NN1C(=O)C2C3C=CC(O3)C2C1=O (stereo not given),22%
CCN(CC)C(=O)CSc1nc2ccsc2c(=O)n1Cc1ccccc1Cl,17%

# The closing five entries of the section before are carried over, then new ones follow:
SMILES,VDR inhibitor
Cc1ccc(CNC(=O)c2cc(S(=O)(=O)N3CCCCC3)ccc2N2CCOCC2)cc1,-9%
COc1ccc(Cl)c(Cn2c(NCC(C)O)nc3c2c(=O)n(C)c(=O)n3C)c1 (stereo not given),15%
CNC(=O)C1CCN(S(=O)(=O)c2c(C)noc2/C=C/c2ccc(C)cc2)CC1,9%
Cc1ccccc1OCC(=O)NN1C(=O)C2C3C=CC(O3)C2C1=O (stereo not given),22%
CCN(CC)C(=O)CSc1nc2ccsc2c(=O)n1Cc1ccccc1Cl,17%
Cn1nc(C(C)(C)C)cc1NC(=O)Nc1cc(Cl)cc(Cl)c1,17%
Cc1ccc(-c2nn(-c3ccccc3)cc2/C=N/O)cc1,8%
C=CCN(CC(=O)Nc1cccnc1)S(=O)(=O)c1ccc(Cl)cc1,35%[activator]
COc1cc(-n2c(=O)c3ccccc3n(Cc3cccnc3)c2=O)cc(OC)c1OC,2%
CCn1c(CC2C(=O)N(C)c3ccc(Br)cc32)nc2ccccc2c1=O (stereo not given),-8%
COc1cc(NC(=O)c2ccccc2)c(OC)cc1Cl,0%
O=C(NC1CC(=O)N(c2cccc(F)c2)C1)C1CCCCC1 (stereo not given),-4%
S=C(NCCc1ccccc1)Nc1ccccc1Cl,-10%
O=C(Nc1ccccc1)N(C1=NCCC1)c1ccccc1,-16%
COc1nc(NS(=O)(=O)c2ccc(C)cc2)nc(C)c1Cl,-1%
CCN(NC(=O)C(O)(c1ccc(F)cc1)c1ccc(F)cc1)C(=O)c1ccccc1,1%
CCOC(=O)N1CCN(C(=O)c2ccccc2N(Cc2ccccc2)S(=O)(=O)c2ccccc2)CC1,-2%
COC(=O)c1ccc(COc2ccc(-c3nnn(CC(N)=O)n3)cc2)cc1,-9%
O=C(NCCO)c1ccc(CSc2nc3ccccc3[nH]2)cc1,-32%
CCNC(=O)CC(=O)Nc1ccccc1C(=O)O,-6%
COC(=O)c1cc(Br)c(=O)n(Cc2ccc3c(c2)OCO3)c1,12%
Cc1cc(C)c(C#N)c(SCC(=O)Nc2ccccc2)n1,-9%
COc1ccc(Cl)cc1NC(=O)CSc1nnc(Cn2c(=O)sc3ccccc32)n1C,-12%
O=C(Cn1c(=O)n(-c2ccccc2)c(=O)c2ccc(C(=O)NCc3ccc4c(c3)OCO4)cc21)Nc1ccc(Br)cc1,-3%
COC(=O)c1ccc(N2CCN(S(=O)(=O)c3ccc(Br)cc3)CC2)c([N+](=O)[O-])c1,-12%
C(=C\c1ccccc1)/C=N/n1cnnc1,-7%
Cc1ccc(CN2CCc3nc(Nc4ccc5c(c4)OCCO5)ncc3C2)cc1,7%
O=C(OCc1ccccc1)N1CCC2CC1c1cc(NCCc3ccccc3)ccc12 (stereo not given),-6%
CCCCN(C(=O)c1ccc(C)c(S(=O)(=O)N2CCOCC2)c1)c1c(N)n(CC(C)C)c(=O)[nH]c1=O,-1%

# Only part of the results is shown; the hit share may differ from the screen's.
